Compound activity as filed in PubChem BioAssay.
Mtb growth: M. tuberculosis H37Rv growth inhibitors, H37Rv strain (AID 1626); M. tuberculosis H37Rv growth inhibition; higher % means a stronger effect; one-dose inhibition, % at 10 µM; IC50 in µM for titrated hits; hit rate 0.95% among 220,000;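 active = confirmed in a dose series; inconclusive = inhibition above 80% but not taken into the dose series; inactive = below 80% or under 30% at every dose of the series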;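 also: bacteria incubated seven days before Alamar blue readout; 0% = bacteria only wells and 100% = bacteria with antibiotic wells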
RecA splice inh: inhibitors of M. tuberculosis RecA intein splicing; cell-free RecA intein splicing, fluorescence; inhibition, %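 (about 9 µM by stock and volumes)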; hit rate 0.75% among 290,000; AID 2221; in the data active = inhibition above about 30%; inconclusive = no clear call, values can overlap the other calls;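 also: 0% = vehicle wells and 100% = reference inhibitor control wells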
Target sequence (P9WHJ3 whole entry, looked up, canonical isoform): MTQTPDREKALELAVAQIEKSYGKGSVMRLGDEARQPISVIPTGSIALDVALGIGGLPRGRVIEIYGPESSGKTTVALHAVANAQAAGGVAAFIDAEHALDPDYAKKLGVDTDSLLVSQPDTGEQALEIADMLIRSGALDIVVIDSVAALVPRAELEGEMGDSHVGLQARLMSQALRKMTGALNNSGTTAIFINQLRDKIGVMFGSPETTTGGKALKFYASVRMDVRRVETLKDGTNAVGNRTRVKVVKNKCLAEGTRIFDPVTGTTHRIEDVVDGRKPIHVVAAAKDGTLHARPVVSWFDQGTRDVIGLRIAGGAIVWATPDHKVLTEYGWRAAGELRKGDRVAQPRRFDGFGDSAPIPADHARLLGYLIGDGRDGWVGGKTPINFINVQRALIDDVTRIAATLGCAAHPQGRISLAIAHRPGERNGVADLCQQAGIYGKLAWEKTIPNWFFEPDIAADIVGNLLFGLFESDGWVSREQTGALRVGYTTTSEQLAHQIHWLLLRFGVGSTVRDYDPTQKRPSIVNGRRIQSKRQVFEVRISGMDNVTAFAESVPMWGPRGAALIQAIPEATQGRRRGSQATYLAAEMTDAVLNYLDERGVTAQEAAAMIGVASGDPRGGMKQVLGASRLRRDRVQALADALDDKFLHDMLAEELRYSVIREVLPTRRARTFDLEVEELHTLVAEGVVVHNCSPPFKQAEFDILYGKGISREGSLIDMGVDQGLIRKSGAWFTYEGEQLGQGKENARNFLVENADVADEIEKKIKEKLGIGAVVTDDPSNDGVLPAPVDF
Mtb betalactam: beta-lactam sensitization of Mtb H37Rv | AID 434955 | M. tuberculosis H37Rv growth with meropenem, percent inhibition; hits of this screen are not shown here | hit rate 0.27% among 330,000 | inhibition, % at 25 µM;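 active = about 74% or more and at least 40 points above the plate without the antibiotic, then above 30% in a dose series; inconclusive = first-round hits that could not be retested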;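 also: growth measured after seven days incubation then overnight dye step; 0% = bacteria only wells and 100% = bacteria with antibiotic; twin plates without the antibiotic show which effects depend on it; some results filed as inactive read as strong as hits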
Arbovirus inh: antivirals against arbovirus infection; arbovirus infection cell-based antiviral screen; inhibition, % at 10 µM; hit rate 0.37% among 200,000; AID 1251;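 active = inhibition from about 30%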;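 also: bluetongue infection of BSR cells; cell survival read as ATP light after 72 h; 0% = infected wells without compound and 100% = uninfected wells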
YopH PTP inh: inhibitors of Yersinia enterocolitica YopH tyrosine phosphatase. inhibition, %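 (about 10 µM by stock and volumes)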. hit rate 0.16% among 140,000. fluorescence Ex485/Em525. AID 898;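 active = inhibition of 50% or more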;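 also: controls were vehicle for no effect and minimum signal wells for full effect; inactives centre near -20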
Arbovirus inh repeat: further read-out of Arbovirus inh, marked with its call; inhibition, %; measured here: 10K subset replicate screen; many hits read low in the repeat;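 first of two repeat runs on a subset; 0% = infected and 100% = uninfected wells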
Active calls of the source: *; u = inconclusive; x = not tested or not shown. Not all compounds are listed (hit frequency here may not be typical).

SMILES	Mtb growth	RecA splice inh	Mtb betalactam	Arbovirus inh	YopH PTP inh	others
CCCCOc1ccc(/C(O)=C2/C(=O)C(=O)N(CCCOC)C2c2ccncc2)cc1C (centres undefined)	-15%	2.1	-1	2	-24
CCOC(=O)CSc1nc(C)c2cc(OC)ccc2n1	6%	-0.8	59	1	-12
Cc1ccnc(SCC(=O)Nc2sc3c(c2C#N)CCCC3)n1	2%	-1.5	11	-1	-25
Cc1ccc(C(=O)O/N=C/C2=C(Cl)c3ccccc3CC2)cc1	0%	0.8	28	18	13
CC(C)(CNC(=S)NCCc1ccccc1)CNC(=S)NCCc1ccccc1	8%	x	x	-18	-20
CCCCn1c(SCC(N)=O)nnc1-c1ccco1	-8%	-0.7	u	12	-38
Cc1cccc(NC(=O)Cn2cnc3c(oc4ccccc43)c2=O)c1	-1%	1.2	3	16	x
NC(=O)[C@@H]1CC2(CC(c3cccc(NC(=O)COc4ccc(Cl)cc4)c3)=NO2)CN1C(=O)COc1ccc(Cl)cc1 (some centres undefined)	6%	7.3	x	x	x
Cc1ccc(S(=O)(=O)N/N=C/c2cccc([N+](=O)[O-])c2)cc1	0%	-1.1	-6	-6	-28
O=C(Nc1ccc2c(c1)OCCO2)N1CCOCC1	4%	-3.3	-2	-2	x
CN(c1ccc(OC(=O)CN2C(=O)NC3(CCCC3)C2=O)cc1)S(=O)(=O)c1ccccc1	x	4.4	1	x	x
O=C(CN1CCCCC1)NNc1nc(-c2ccccc2)c2cc(Br)ccc2n1	-3%	-0.3	3	x	x
COC(=O)c1ccc(NC(=O)CN(c2ccc(OC)cc2)S(C)(=O)=O)cc1	-7%	0.6	1	11	27
Cc1cc(NCC2CCCCC2)nc2ccccc12	x	1.8	-3	x	x
COCCOC(=O)C1=C(C)N=C2SCCC(=O)N2C1c1cccs1 (centres undefined)	0%	-0.7	1	5	x
Cc1ccc(/C=N\NC(=O)c2ccc(Cn3cc(Br)c([N+](=O)[O-])n3)o2)o1	-11%	0.4	3	-5	x
Cc1nc(-c2ccc(S(=O)(=O)Nc3ccccc3C)cc2)co1	x	0.0	-2	x	x
O=C(CN1CCOCC1)Nc1ccc(-c2nc3ccccc3[nH]2)cc1	0%	0.3	6	-1	-16
Cc1ccccc1C(=O)N1CCN(c2ccc(NC(=O)c3cccc(OC(C)C)c3)cc2)CC1	x	0.0	-9	x	x
COc1ccc(NC(C)(C)c2nnnn2-c2c(C)cccc2C)cc1	3%	1.7	1	x	x
CCOCCCNC(=O)C(c1ccc(OC)cc1)N(Cc1ccc2c(c1)OCO2)C(=O)c1cnccn1 (centres undefined)	-1%	-1.1	6	8	x
COc1ccc(C2=CC(=O)CC(c3ccc(F)cc3)C2)cn1 (centres undefined)	-1%	1.0	-3	x	x
CCOC(=O)CSC1=NC(=O)/C(=C\c2ccc(Cl)cc2)S1	38%	17	100	12	-35
O=C(/C=C/c1ccccc1)NCCS(=O)(=O)N1CCN(c2ccc(F)cc2)CC1	x	-3.9	-6	x	x
O=C(NCc1ccccn1)C(C(=O)c1ccc(F)cc1)n1ccccc1=O (centres undefined)	-1%	3.0	9	2	-56
CN1CCN(C(c2ccc(Cl)cc2)c2cc(Cl)c3cccnc3c2O)CC1 (centres undefined)	x	79*	63	x	x
COc1cc(C(=O)Nc2ccccn2)cc(OC)c1OC	5%	2.0	-7	-2	-28
O=C(NCc1n[nH]c(=S)n1-c1ccc(F)cc1)c1ccc(S(=O)(=O)N2CCCCC2)cc1	x	1.0	-3	x	x
CN(C)CCC(Oc1ccccc1OCc1ccccc1)c1ccccc1 (centres undefined)	x	2.1	-2	x	x
O=C(Nc1ccc2oc(-c3cccnc3)nc2c1)c1ccc([N+](=O)[O-])o1	<0.2µM*	-2.2	x	-17	x
CC12CCC(=O)N1C(C(=O)Nc1nnc(SCc3ccccc3F)s1)CS2 (centres undefined)	x	-1.1	-4	x	x
CCOC(=O)Cc1csc(NC(=O)CCc2ccc(S(=O)(=O)N3CCOCC3)cc2)n1	2%	x	6	4	-41
Cc1ccc(NC(=O)CS(=O)(=O)c2cn(C)c3ccccc23)c(C)c1	5%	1.0	-4	x	x
COc1ccc(CNC(=O)CSc2nnc3c(Cl)cc(C(F)(F)F)cn23)cc1OC	-7%	-2.9	-3	2	-22
COc1ccc(N2CCN(c3oc(COc4ccccc4Cl)nc3C#N)CC2)cc1	7%	2.8	13	-4	-17	Arbovirus inh repeat=-6
Cc1ccc(N2C(=O)[C@@H]3C(C(=O)CCN4C(=O)c5ccccc5C4=O)=NN[C@@H]3C2=O)cc1	-5%	0.7	-5	4	12
COc1ccc(CN2C[C@H](Cc3ccccc3)[C@@H](CC(=O)Nc3ccccc3)C2=O)cc1	x	5.3	-7	x	x
Cc1cccc(NC(=O)CSc2nc(N)c(NC(=O)c3ccccc3F)c(=O)[nH]2)c1	x	-2.0	-6	x	x
Cc1ccc2nc(NC(=O)c3ccc(N4C(=O)CCC4=O)cc3)sc2c1	0%	-3.5	1	10	x
COc1cc2nc(SCc3ccc(C(F)(F)F)cc3)n(Cc3cccs3)c(=N)c2cc1OC	-5%	-0.7	-14	9	-50
COc1cccc(NC(=O)Nn2cnnc2)c1	x	0.0	-1	x	x
Cc1ccc(/C=C2\Oc3cc(OCC(=O)NN)ccc3C2=O)o1	x	-0.8	1	x	x
COc1ccccc1Nc1nc(-c2cccc([N+](=O)[O-])c2)cs1	6%	x	0	x	x
Fc1ccccc1Cn1nnc2c(-n3ccnc3)ncnc21	2%	14	1	11	-43
C=CCc1cccc2cc(C(=O)Nc3ccccc3C(=O)O)c(=O)oc12	-2%	x	x	32*	x
COc1ccccc1-c1coc2cc(OC(=O)/C=C/c3ccccc3)ccc2c1=O	12%	0.1	0	8	-27
COc1ccc(CCNC(=O)CNS(=O)(=O)c2cccs2)cc1OC	8%	0.4	-4	0	-37
Cc1cc(Cl)ccc1OCC(=O)NCCC(=O)O	-15%	-0.3	4	5	-36
Cc1ccc(N(CC(=O)NCC2CCCO2)C(=O)CCC(=O)Nc2ccccn2)cc1 (centres undefined)	-8%	-1.3	2	6	x
CN(CC(=O)N1CCN(c2ccccn2)CC1)S(=O)(=O)c1cccc2nsnc12	-7%	3.8	-7	-3	-17
CC(C)N(C(=O)CSc1nnc(Cn2nnc3ccccc32)n1C)C(C)C	4%	1.2	-8	6	3
CCOC(=O)CSc1nc2sc3c(c2c(=O)[nH]1)CC(C)(C)OC3	-6%	9.9	-5	-7	-53
Cc1cc(C)c(S(=O)(=O)NCCCn2ccnc2)c(C)c1	6%	2.8	-4	0	-15
COc1ccccc1N1CCN(C(=O)c2cc(C)on2)CC1	x	3.5	-8	x	x
CCCCC(=O)Nc1ccccc1C#N	0%	-1.3	-5	3	-10
COc1ccc(C(=O)N(c2ccccn2)C2CCCCC2)c(OC)c1	0%	-0.9	-12	0	x
Cc1ccc(S(=O)(=O)N2CCOCC2)c(C)c1NS(C)(=O)=O	-7%	-4.6	7	7	-27
O=C(OCc1ccccc1F)c1cc2ccccc2cc1O	x	2.7	80	x	x
O=C(N/N=C/C=C\c1ccco1)c1cccs1	0%	5.7	13	5	x
CN(c1ccccc1C(=O)N1CCN(c2ccccc2)CC1)S(C)(=O)=O	-4%	x	-10	1	14

Additional compounds.
SMILES	Mtb growth	RecA splice inh	Mtb betalactam	Arbovirus inh	YopH PTP inh	others
Cc1cc(=O)n2[nH]c(=O)c(N=Nc3ccccc3)c2[nH]1	-5%	7.1	92	3	-5
CCCNC(=O)Nc1cc(OC)c(OC)cc1Cc1nccc2cc(OC)c(OC)cc12	x	-1.7	-6	x	x
COc1cccc(C(=O)Nc2nnc(-c3ccc(Cl)cc3)o2)c1	u	2.9	98	-24	x	Arbovirus inh repeat=0
O=C1/C(=C/c2ccccn2)SC(=S)N1N1CCOCC1	-7%	5.8	-4	x	x
c1ccc(COc2ccc(OCCN3CCCC3)cc2)cc1	46%	1.5	27	-27	-32
CC(C)NC(=O)NC(=O)COC(=O)/C=C/c1ccc2c(c1)OCO2	0%	0.0	-5	x	x
CCOC(=O)Cn1c(=O)oc2cc(S(=O)(=O)N(CCN(C)C)Cc3ccccc3)ccc21	-1%	-2.1	-6	-4	-45
COc1cc(/C=N/NC(=O)c2cc(-c3ccccc3)nc3ccccc23)cc(OC)c1O	x	-0.6	-1	x	x
COC(CNC(=O)C(=O)NCC1OCCN1S(=O)(=O)c1ccccc1)OC (centres undefined)	x	1.6	0	x	x
Cc1cc([N+](=O)[O-])ccc1NC(=O)CSc1nnc(C)n1C	x	-0.9	3	x	x
Cc1ccc(S(=O)(=O)NCC2CCC(C(=O)N3CCOCC3)CC2)cc1 (centres undefined)	x	-0.8	-3	x	x
N#Cc1c(NC(=O)c2ccc(Cn3cc(Br)cn3)o2)sc2c1CCCCC2	28%	12	92	-5	-6
COc1cc(Nc2cc(C)nc3ncnn23)cc(OC)c1OC	-7%	2.0	u	-6	-35
CN(C)CCN(C(=O)c1ccc2c(c1)OCCO2)c1nc2ccc(Cl)cc2s1	2%	0.5	-1	-5	x
CN1CCN(S(=O)(=O)c2cccc(C(=O)Oc3cccc(C#N)c3)c2)CC1	x	6.3	3	x	x
Cc1cc(-n2c(C)cc(C(=O)CSc3nc(N)cc(=O)[nH]3)c2C)no1	1%	1.9	-8	x	x
[O-]/[N+](=C\c1ccncc1)c1ccc(Br)cc1	6%	-1.5	7	0	38	Arbovirus inh repeat=-4
COC1=NS(=O)(=O)c2ccccc21	1%	3.6	-4	5	-4
Cc1cc(C)n2nc(C(=O)N(C)C(c3ccccc3)c3ccccc3)nc2n1	-1%	13	-1	25	x
COC(=O)/C(=C/c1ccc(F)cc1)NC(C)=O	-6%	0.6	-9	-5	-35

Quoted from the results shown (2 entries):
SMILES	Mtb growth	RecA splice inh	Mtb betalactam	Arbovirus inh	YopH PTP inh	others
Cc1cc(C)n2nc(C(=O)N(C)C(c3ccccc3)c3ccccc3)nc2n1	-1%	13	-1	25	x
COC(=O)/C(=C/c1ccc(F)cc1)NC(C)=O	-6%	0.6	-9	-5	-35

Later entries.
SMILES	Mtb growth	RecA splice inh	Mtb betalactam	Arbovirus inh	YopH PTP inh	others
O=C(CNC(=O)c1cc2c(n(-c3ccccc3)c1=O)CCCC2=O)c1ccccc1	x	0.3	-10	x	x
NC(=O)c1cc(S(=O)(=O)N2CCOCC2)ccc1N1CCCC1	x	-1.4	1	x	x
COc1ccc(/C=C/C(=O)Nc2nc(N)n(-c3ccccc3)n2)cc1	7%	7.5	7	-26	-11
COc1cccc(CNS(=O)(=O)c2c(C(=O)N3CCCCCC3)c(C)n(C)c2C)c1	x	-1.4	1	x	x
CC(=O)Oc1c(Cl)cc(Cl)cc1/C=C/c1ccc2ccccc2n1	21%	20	-4	-35	-32
COc1cccc(/C=N/Nc2nc3ccccc3[nH]2)c1O	-1%	0.4	53	x	x
S=C(Nc1cc(Cl)ccc1Oc1ccccc1)N1CCN(c2ccccn2)CC1	x	13	4	x	x
COc1ccc(NC2=CC(c3ccc(OC)c(OC)c3)N(c3ccc(OC)cc3)C2=O)cc1 (centres undefined)	88%	-2.1	64	-1	9
Nn1c(SCC(=O)Nc2ccc3c(c2)OCCO3)nnc1C(F)(F)F	-11%	-2.8	1	10	-8
O=C(CN1CCCCC1)Nc1ccc(S(=O)(=O)N2CCCCCC2)cc1	-1%	-0.8	-15	-8	-29
CCOCCCNC(=S)N(CCO)Cc1cc2cc3c(cc2[nH]c1=O)OCCO3	x	-6.2	0	x	x
CCOC(=O)CNS(=O)(=O)c1c(C)noc1C	3%	-2.8	-1	4	-14
COc1cccc(NC(=O)C2Cc3ccccc3CN2C(=O)c2ccco2)c1 (centres undefined)	x	0.5	1	x	x
Cc1c(NC(=O)c2ccc(Cl)c(S(=O)(=O)N3CCOCC3)c2)c(=O)n(-c2ccccc2)n1C	-1%	-3.2	-9	-1	-38
Nc1ccc(-c2nc3c(ccc4ccccc43)[nH]2)cc1	x	0.6	-10	x	x
CCOc1ccccc1N1CCN(Cc2cc3c(cc2[N+](=O)[O-])OCO3)CC1	x	-1.6	10	x	x
COc1ccc(C2C=C(c3cccs3)Nc3nc(CCCO)nn32)cc1 (centres undefined)	-21%	x	-6	-10	-15
Cc1ccccc1-n1c(SCC(=O)N(C)C2CCS(=O)(=O)C2)nc2ccccc2c1=O (centres undefined)	1%	-1.4	1	-1	x

Quoted at random: 3 compounds from above.
SMILES	Mtb growth	RecA splice inh	Mtb betalactam	Arbovirus inh	YopH PTP inh	others
CC(=O)Oc1c(Cl)cc(Cl)cc1/C=C/c1ccc2ccccc2n1	21%	20	-4	-35	-32
S=C(Nc1cc(Cl)ccc1Oc1ccccc1)N1CCN(c2ccccn2)CC1	x	13	4	x	x
COc1cccc(NC(=O)C2Cc3ccccc3CN2C(=O)c2ccco2)c1 (centres undefined)	x	0.5	1	x	x
